Screening results (PubChem BioAssay)
Prx2 Sm inh: Schistosoma Mansoni Peroxiredoxins (Prx2) | AID 448, 2006 | Potency, µM | hit rate 0.07% among 65,000 | S. mansoni Prx2 activity coupled to TGR/GSH (TGR is thioredoxin glutathione reductase), NADPH fluorescence loss, qHTS; some inactives read as strong as hits; active means full or partial inhibition curve with a strong effect at the top dose; inconclusive means weaker partial or single-point curve; inactive means no accepted curve; further: series up to 57 µM; many of its hits are not listed in these tables
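Activity is read as the drop in NADPH fluorescence (365/450 nm), recorded every 30 sec for 8 min after H2O2 addition. Prx2 is coupled to TGR-driven NADPH oxidation through glutathione, in phosphate buffer pH 7.4.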
LT uptake inh: qHTS Assay for Anthrax Lethal Toxin Internalization; Cells, anthrax lethal toxin internalization, FRET ratio (460/530); Potency, µM (top dose mostly 40 µM), for the others: at the top dose activity change, negative = inhibition, most hits filed as inhibitors; hit rate 0.67% among 70,000; AID 912, 2007; active = well fitted falling ratio curve with the 530 nm signal flat; inconclusive = other ratio curves, or a change in one channel alone; inactive = flat curves in the ratio and both channels; the % refers to the ratio; further: on the % scale 0 is the no-effect control and ±100 the full control effect; nearly all actives have a fitted effect of over 50% in size; tested in ME-180 cells; beta-lactamase reporter
* marks the source's active call; other numbers are inactive results; u = inconclusive; x = not tested or not shown; & = joins results of further samples; [ ] = another dose, or the depositor's remark. Potency means the concentration at half of the fitted maximal effect. Some of the compounds tested, so the mix of outcomes need not match the whole.

compound | Prx2 Sm inh | LT uptake inh
CCn1c(Cc2ccccc2)nnc1SCC(=O)Nc1nnc(-c2ccccc2)s1 | >57 | -9.4%
COc1ccc(-c2[nH]nc3c2C(c2ccc(OC(=O)N4CCOCC4)cc2)C(C#N)=C(N)O3)cc1 (configuration not stated) | >57 | 0.9%
CCC(C)NC(=O)CSC1=Nc2ccccc2C2=NC(CC(=O)NCc3ccccc3)C(=O)N12 (configuration not stated) | >57 | 10.4%
O=C1c2c(O)ccc([N+](=O)[O-])c2C(=O)c2c([N+](=O)[O-])ccc(O)c21 | x | u
CC(C)n1c(SCc2cc(=O)[nH]c3ccccc23)nc2c1c(=O)n(C)c(=O)n2C | >57 | 1.2%
COc1cc(C(Nc2ccc3c(c2)OCO3)C(=O)NC2CCCCC2)cc(OC)c1OC (configuration not stated) | >57 | -20.0%
Cc1ccccc1N1CCN(Cc2c(C#N)c3ccccc3n2C)CC1 | >57 | u
C=CCN1CCc2c(cc(O)c(O)c2Cl)C(c2cccc(C)c2)C1 (configuration not stated) | x | -6.6%
COC(=O)C1C(=O)NC(SC)=C(C#N)C1c1ccccc1F (configuration not stated) | >57 | 14.0%
C=CCOC(=O)C1=C(C)OC(N)=C(C#N)C1c1c(C)nn(-c2ccccc2)c1Cl (configuration not stated) | >57 | u

Remaining list, next part
compound | Prx2 Sm inh | LT uptake inh
CCOC(=O)C(NC(=O)c1ccccc1)(Nc1cc(C)on1)C(F)(F)F (configuration not stated) | >57 | -3.9%
COc1ccc(C2N(c3cc(C)on3)C(=O)C3CCCN32)cc1OC (configuration not stated) | >57 | -2.3%
NC(=O)COC(=O)CNC(=O)c1ccc(Cl)cc1 | >57 | -17.5%
O=C(c1ccc(CS(=O)(=O)Cc2ccc(Cl)cc2)o1)N1CCCC1 | >57 | 4.9%
CCN1CCCC1CNC(=O)c1cn(C)c2ccc(S(=O)(=O)N3CCCCCC3)cc2c1=O (configuration not stated) | >57 | 2.8%
CCCSc1nnc2nc3c(nn12)c1ccccc1n3C | >57 | -9.5%
CSC1=NCCN1C(=O)c1ccco1 | >57 | -1.5%
C[C@]12CC[C@H](O)C[C@@H]1CC[C@H]1[C@H]2CC[C@]2(C)C(=O)CC[C@@H]12 | >57&>57&>25.6&>57 | -3.5%[3.58 µM]
CCOC(=O)c1ccc(CNS(=O)(=O)c2c(C)ccc3nsnc23)o1 | >57 | -1.1%
CCN1CCN(C(=O)c2ccc3c(c2)N(Cc2ccc(F)cc2)C(=O)c2ccccc2S3=O)CC1 (configuration not stated) | >57 | -9.2%

Next section; the last 3 above are carried over.
compound | Prx2 Sm inh | LT uptake inh
C[C@]12CC[C@H](O)C[C@@H]1CC[C@H]1[C@H]2CC[C@]2(C)C(=O)CC[C@@H]12 | >57&>57&>25.6&>57 | -3.5%[3.58 µM]
CCOC(=O)c1ccc(CNS(=O)(=O)c2c(C)ccc3nsnc23)o1 | >57 | -1.1%
CCN1CCN(C(=O)c2ccc3c(c2)N(Cc2ccc(F)cc2)C(=O)c2ccccc2S3=O)CC1 (configuration not stated) | >57 | -9.2%
Cc1ccc(C(=O)CCNc2cccc(Br)c2)o1 | x | -8.1%
Cc1oc2c(CN(C)C)c(O)ccc2c(=O)c1-c1cscn1 | >57 | -0.7%
COc1ccc(CN(CCN2CCOCC2)C(=O)c2c(F)cccc2F)cc1OC | >57 | -2.1%
CCN(CC)CCCCn1c(-c2ccccc2)nc2c(N(CCOC)CCOC)nc(C)nc21 | x | 7.8%
COc1ccc(C)cc1NC(=O)C1C2C=CC(C2)C1C(=O)O (configuration not stated) | >57 | -6.5%
COc1cccc(Nc2nc(-c3sc(N)nc3C)cs2)c1 | >57 | u
N[C@@H](CSCc1ccccc1)C(=O)O | >11.4 | -12.5%[8 µM]
Cc1ccc(-c2nc3ncccc3o2)cc1NC(=O)c1cc2ccccc2o1 | x | -15.0%
Cc1nnc(SCCn2c(N3CCCCCC3)nc3c2c(=O)[nH]c(=O)n3C)s1 | >57 | -6.8%
Cc1cc(Cc2cc(C)c(N)cc2N)c(N)cc1N | >57 | 4.4%[8 µM]

The list goes on.
compound | Prx2 Sm inh | LT uptake inh
Cc1ccc(CN2C(=O)CCC2C(=O)NCCN2CCN(c3cccc(Cl)c3)CC2)cc1 (configuration not stated) | >57 | -5.4%
COc1ccccc1Nc1ncc(C(C)=O)c(C)n1 | >57 | 14.8%
Cc1ccc(S(=O)(=O)N2CCCC2C(=O)Nc2cc(C)on2)cc1 (configuration not stated) | >57 | -6.8%
Cc1ccc(-c2nnn(CC(=O)Nc3cccc4cccnc34)n2)o1 | >57 | u
CC(C)Cc1cc(C(=O)NCCN2CCOCC2)no1 | >57 | -2.1%
O=C(Nc1ccccc1Cl)c1cccs1 | >57 | -14.2%
Cc1nc2oc(C(=O)c3ccccc3)c(N)c2c2c1COC(C)(C)C2 | >57 | 10.4%
CCC(c1nnnn1CCOC)N(Cc1ccc(C)cc1)Cc1cc2cc(OC)ccc2[nH]c1=O (configuration not stated) | >57 | -3.0%
CCOC(=O)C1CCN(Cc2c(O)ccc3ccccc23)CC1 | >57 | -2.4%
CC(=O)C=NCC(=O)O | >57 | -3.6%[8 µM]

Carrying on.
compound | Prx2 Sm inh | LT uptake inh
CCOCCCn1c(C)nc2c(c1=O)c1nc3ccccc3nc1n2-c1ccc(C)cc1 | >57 | u
CN(C)S(=O)(=O)N1CCN(c2cccc(Cl)c2)CC1 | x | -25.9%
COc1cc(OC)cc(C(=O)NCC(=O)N2CCC(C)CC2)c1 | >57 | 20.4%
COc1cccc(C2C(C#N)=C(N)Oc3c2oc(CO)cc3=O)c1OC (configuration not stated) | >57 | -8.5%
Cc1onc(-c2ccccc2)c1C(=O)OCC(=O)c1ccccc1 | >57 | -15.7%
CCn1c(SCC(=O)Nc2ccccc2C(=O)OC)nnc1-c1ccoc1C | >57 | 0.0%
CC(C)CC(C(=O)Nc1oc(-c2ccco2)c(-c2ccco2)c1C#N)N1C(=O)c2ccccc2C1=O (configuration not stated) | >57 | u
Cc1c(NC(=O)c2ccc(CN3CCc4ccccc4C3)cc2)c(=O)n(-c2ccccc2)n1C | x | 4.9%
O=C(Nc1ccc(Cl)cc1)N1CCCC1 | >57 | -7.3%
COc1ccc(OC)c(S(=O)(=O)NCCc2ccccc2)c1 | >57 | 1.9%

The list continues:
compound | Prx2 Sm inh | LT uptake inh
CCCn1c(CNc2ccc(Br)cc2)nc2ccccc21 | >57 | u
O=P(O)(O)C#Cc1ccccc1 | x | -8.4%
Cc1ccc2[nH]c(=S)cc(C)c2c1 | >57 | 4.5%
COc1ccc2c(=O)c3c(=O)n(Cc4ccco4)c(C4CCCCC4)nc3oc2c1 | >57 | -10.0%
CCCCCCCCCCCCCCCC(=O)NCCc1ccc(O)c(O)c1 | x | u
Cc1oc2cc(O)ccc2c(=O)c1Oc1ccccc1Br | >57 | 2.5%
CN(C)c1ccc2c(c1)N=C(c1ccco1)OP2(=S)N1CCOCC1 (configuration not stated) | >57 | -28.7%
COc1ccc(N2C(=O)C3CCCN3C2c2cc(OC)c(OC)c(OC)c2)cc1 (configuration not stated) | >57 | 20.4%
CC1=C(C(=O)OCC2CCCO2)C(c2ccncc2)C2=C(CC(C)(C)CC2=O)N1 (configuration not stated) | >57 | 7.9%
CCOC(=O)Nc1ccc(C(N)=O)cc1 | >57 | -0.8%

(more compounds)
compound | Prx2 Sm inh | LT uptake inh
N#Cc1nc(COc2ccccc2)oc1N1CCCCC1 | >57 | -29.5%
COc1ccc(CN(C(=O)Cn2nnc3ccccc32)C(C(=O)NC(C)(C)C)c2ccco2)cc1 (configuration not stated) | >57 | 3.7%
CCN(CC)CCNC(=O)c1cn(C)c2ccc(S(=O)(=O)N(C)C3CCCCC3)cc2c1=O | >57 | 3.98µM*
O=c1c2ccccc2c(C=NCCCN2CCOCC2)c(O)n1Cc1ccccc1 | >57 | 22.2%
CCCN1C(=O)C(NS(=O)(=O)c2ccc(N)cc2)(C(F)(F)F)C(C(=O)OC)=C1C (configuration not stated) | >57 | -2.5%
CN1CCc2c(sc(/N=C/c3ccco3)c2C(N)=O)C1 | >57 | u
COc1cccc2cc(C(=O)N3CCN(c4ccccc4F)CC3)c(=O)oc12 | >57 | u
CCOc1ccc(C(C)NC(=O)CCC(=O)O)cc1 (configuration not stated) | >57 | -10.1%
Cn1c(Cc2cccs2)nnc1SCC(=O)N1CCc2ccccc21 | >57 | -3.6%
Cc1cc(NS(=O)(=O)c2ccc(C3CCCCC3)cc2)no1 | >57 | 15.3%

Following part
compound | Prx2 Sm inh | LT uptake inh
S=c1nc[nH]c2c1ncn2Cc1ccco1 | >57 | -8.7%[8 µM]
O=C(c1cccc(S(=O)(=O)N2CCOCC2)c1)N1CCOCC1 | x | -8.3%
CC(C)(C)c1ccc(-c2nnc(SCCC#N)n2C2CCCC2)cc1 | >57 | -20.9%
CCOC(=O)N1CCN(C(=O)CSCC(=O)N=c2sc3ccccc3n2C)CC1 | >57 | 7.8%
O=S(=O)(c1ccccc1)N1CCC2(CCCN(c3cccc(-c4ccccc4)c3)C2)CC1 | >57 | 7.2%
CCCCOC(=O)C1C2C=C[C@]3(CN(C(C)c4ccc(OC)cc4)C(=O)[C@H]13)O2 (some centres not stated) | >57 | 10.0%
CC1(C)CC(=O)C(C=NCCc2ccccn2)=C(O)C1 | x | 17.6%
COc1cccc(-c2oc3ccccc3c(=O)c2O)c1 | >57 | u
O=C(CNC(=O)c1ccc(Cl)cc1Cl)NCC(=O)Nc1ccccc1N1CCOCC1 | >57 | -4.3%
CC1=CCP(=O)(c2ccccc2)C1 (configuration not stated) | >57 | -4.7%

Other compounds follow:
compound | Prx2 Sm inh | LT uptake inh
Cc1ccc(C)c2nc(N3CCCC3)c(C#N)cc12 | >57 | u
Cc1cccc(NC(=O)N(Cc2nc3ccccc3c(=O)[nH]2)C2CCCC2)c1 | >57 | -18.9%
COCCn1c(=O)c(-c2cccc(C#N)c2)nc2cnc(N3CCN(C)CC3)nc21 | >57 | -3.8%
O=C(C(Cc1ccccc1)n1cccc1)N1CCCCC1 (configuration not stated) | >57 | -1.9%
CCCCSc1nc(CCC)cc(=O)[nH]1 | >57 | -3.0%
Cc1nc2ncnn2c(C)c1CCC(=O)N1CCc2ccccc21 | >57 | -11.2%
COC(=O)CSCc1nc2ccccc2[nH]c1=O | >57 | 5.6%
c1ccc(CCc2nc(-c3cccnc3)no2)cc1 | >57 | -14.2%
O=C(COc1ccc(Cl)cc1)Nc1ccc(Cl)cn1 | >57 | -14.5%
CCCCCCn1c(SCCCC)nc2c1c(=O)[nH]c(=O)n2C | >57 | -3.4%

New compounds follow
compound | Prx2 Sm inh | LT uptake inh
CN(C)CC(C)(C)NS(=O)(=O)c1ccc(Cl)cc1 | >57 | 1.3%
COC(=O)N1CCC2(CCCN(c3ccccn3)C2)CC1 | >57 | u
CCC(C)OC(=O)n1ccc(C(=O)Nc2nccs2)n1 (configuration not stated) | >57 | -4.0%
Cc1ccc(-c2oc3ncnc(N)c3c2-c2ccc(C)cc2)cc1 | >57 | 6.8%
COc1ccc(OC)c(S(=O)(=O)N(C)CC(=O)Nc2ccc3c(c2)OCO3)c1 | >57 | x
CC(=O)Nc1ccc(N2C(=O)CC(N3CC(C)OC(C)C3)C2=O)cc1 (configuration not stated) | >57 | -10.5%
Cc1csc(NC(=O)CSc2nnc(-c3ccco3)n2C)n1 | >57 | 3.2%
COc1ccc(-c2nc(SC)n(C(=O)c3ccco3)n2)cc1 | >57 | 9.7%
CC12C=CC3(CN(Cc4ccccc4)C(=O)C3C1C(=O)NCc1ccco1)O2 (configuration not stated) | >57 | -4.7%
Cc1ccnc(NC(=O)CCC2CCCCC2)c1 | >57 | 5.0%

The listing continues.
compound | Prx2 Sm inh | LT uptake inh
CN(Cc1ccco1)C(=O)C(Cc1ccccc1)NS(=O)(=O)c1ccc2c(c1)CCC(=O)N2 (configuration not stated) | >57 | 2.3%
Cc1cccc(OCc2nnc(SCC(=O)N3CCc4ccccc43)n2C)c1 | >57 | 13.0%
C=CCCCCCCC=C | x | -11.1%
CCSc1nnc(NC(=O)CSc2nnc(Cc3cccn3C)n2CCc2ccccc2)s1 | >57 | 0.5%
CCOc1ccc(-n2c(SC)nc3c(c2=O)SCC3)cc1 | >57 | -7.5%
CC(C)OC(=O)CC(=O)c1sc2nc3c(cc2c1N)CN(C)CC3 | >57 | -17.3%
CCc1cc(C(=O)OC)c(NC(=O)CC2NCCNC2=O)s1 (configuration not stated) | >57 | 3.1%
CCOC(=O)c1sc(NC(=O)CSc2ncccn2)c(C#N)c1C | >57 | -0.5%
Cc1noc(C)c1COC(=O)c1ccc2c(c1)OCCO2 | >57 | 5.5%
CCCN(CCC)C(=O)CSc1nc2n[nH]c(C)c2c(=N)n1-c1ccc(OC)cc1 | >57 | -14.3%

Following part.
compound | Prx2 Sm inh | LT uptake inh
Cc1cc(S(=O)(=O)Nc2ccccc2C(=O)O)ccc1Cl | >57 | -26.8%
CCN(CC)CCNC(=O)c1ccccc1C(=O)c1ncc[nH]1 | x | -6.6%
NC(=O)C1CCN(C(c2ccccc2F)c2nnnn2Cc2ccco2)CC1 (configuration not stated) | >57 | -14.3%
CC(C)c1ccc(O)c(NC(=O)c2cncc(Br)c2)c1 | >57 | -14.3%
O=C(O)[C@H](Cc1ccccc1)N1Cc2ccccc2C1=O | >57 | -1.4%
COc1ccc2[nH]cc(CCNc3ccnc(-c4ccccc4C)n3)c2c1 | >57 | u
